Source: PubChem
HSV augment – enhancers of HSV replication in host cells, fold increase, host cell viability; HSV replication augmentation in cells; maximum fold increase; hit rate 0.005% among 220,000; AID 1956, 2009;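 active = peak rise of 1.5-fold or more in the series; tested in PC3 cells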;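 note: first round at 10 µM; read as green reporter fluorescence; hits show the peak of a series up to 25 µM; 1 = signal of infected wells without compound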
Insulin prom inh – inhibitors of insulin promoter-driven GFP, primary screen, imaging, TRM-6 cells (human fetal islet line), eGFP reporter, cell count; reporter expression induced with tamoxifen; inhibition, % at 2 µM; hit rate 0.9% among 130,000; AID 1273, 2008;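 active = inhibition above the mean plus 3 SD, with well images judged a real hit on visual review, cut at about 60% in these data, passing the limit was not always enough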
PKD1 kinase inh – inhibitors of human PKD1 kinase, biochemical, fluorescence polarization | AID 797, 2007 | hit rate 0.056% among 200,000 | inhibition, %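 (about 10 µM by stock and volumes)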 | PKD1 kinase fluorescence polarization assay | Serine/threonine-protein kinase D1 (Homo sapiens), Q15139;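 active = inhibition of 50% or more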;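 note: controls were vehicle for no effect and a reference inhibitor for full effect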
Target sequence (Q15139 whole entry, looked up): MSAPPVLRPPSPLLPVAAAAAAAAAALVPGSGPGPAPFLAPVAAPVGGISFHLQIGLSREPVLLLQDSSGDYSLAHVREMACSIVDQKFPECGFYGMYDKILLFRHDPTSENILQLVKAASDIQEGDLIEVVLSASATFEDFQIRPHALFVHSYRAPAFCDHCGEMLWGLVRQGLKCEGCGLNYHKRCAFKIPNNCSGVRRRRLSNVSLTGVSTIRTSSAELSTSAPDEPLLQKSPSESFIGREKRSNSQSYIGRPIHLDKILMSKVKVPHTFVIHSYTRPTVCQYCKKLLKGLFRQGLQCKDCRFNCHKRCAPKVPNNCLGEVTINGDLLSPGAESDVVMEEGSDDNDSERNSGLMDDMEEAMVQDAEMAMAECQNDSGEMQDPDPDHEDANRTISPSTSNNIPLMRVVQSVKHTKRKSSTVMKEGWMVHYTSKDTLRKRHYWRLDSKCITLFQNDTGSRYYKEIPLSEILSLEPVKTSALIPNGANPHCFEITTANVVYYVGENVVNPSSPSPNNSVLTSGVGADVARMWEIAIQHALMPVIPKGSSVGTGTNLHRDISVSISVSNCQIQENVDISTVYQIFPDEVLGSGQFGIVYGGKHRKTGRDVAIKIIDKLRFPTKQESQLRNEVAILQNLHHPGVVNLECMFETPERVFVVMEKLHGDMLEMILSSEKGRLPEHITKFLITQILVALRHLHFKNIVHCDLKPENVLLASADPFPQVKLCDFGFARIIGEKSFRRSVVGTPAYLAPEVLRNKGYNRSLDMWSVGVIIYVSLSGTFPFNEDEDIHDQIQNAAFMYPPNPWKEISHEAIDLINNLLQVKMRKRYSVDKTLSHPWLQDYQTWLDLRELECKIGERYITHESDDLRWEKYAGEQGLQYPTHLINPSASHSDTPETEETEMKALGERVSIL
RGS16-Gao HTS – modulators of RGS16 binding to Galphao, primary screen, biochemical, human proteins, multiplexed bead flow cytometry; binding response (% of control), % at 10 µM; Regulator of G-protein signaling 16 (Homo sapiens) + Guanine nucleotide-binding protein …; bead-based flow cytometry RGS16-Galphao binding, fluorescence; actives lie on both sides; hit rate 0.38% among 220,000;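 active = below 25% or above 175%, edge rows of some plates excepted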;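 note: Galphao activated by GDP with aluminum fluoride before binding; 100% = wells without compound and 0% = beads without RGS; some results beyond the cut were filed as inactive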
GALR2 agonist – GALR2 receptor agonists, primary screen, cell-based; GALR2-expressing cells, agonist activation read-out; activation, %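 (tested at 5 µM)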; hit rate 0.48% among 140,000;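 active = above mean plus 3 SD of all compounds, about 5% in these data, not always enough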;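 note: 0% = vehicle buffer wells and 100% = reference agonist at full effect; tested in CHO reporter cells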
Insulin prom inh cell count – also measured in Insulin prom inh; calls as there; normalized cell count, %; measured here: cell count, toxicity; reference of the scale not given here;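 cells exposed to compound for 48 h; stained nuclei by imaging scaled within each plate; lower means fewer cells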
HSV augment primary fold – second read-out of HSV augment, no call of its own (marks repeat the call); fold increase; compound at 10 µM; measured here: primary screen fold increase 10 uM; tested in PC3 cells;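 GFP signal in the first replicate; 1 = infected wells without compound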
Active calls of the source: *; i = inactive; . = not tested or not shown. No enrichment for hits; any-hit rate near 1.1%.

SMILES	HSV augment	HSV augment primary fold	Insulin prom inh	Insulin prom inh cell count	PKD1 kinase inh	RGS16-Gao HTS	GALR2 agonist
COc1ccc(C(CC(=O)Nc2cc([N+](=O)[O-])ccc2OC)c2ccccc2)cc1 (stereo unspecified)	i	1.23	.	.	-5.7	129.1	-0.3
CSc1snnc1-c1ccccc1	i	0.92	.	.	6.2	102.9	.
COc1ccc(OC)c(S(=O)(=O)NCCC(C)C)c1	i	0.89	0.0	91.6	-4.6	133.8	.
COc1cc(CNCc2ccccc2)c(Br)cc1OC1CCCC1	i	1.02	40.0	103.4	6.0	99.3	.
CSc1nc(NC(C)(C)C)nc(Oc2ccc(=O)n(C)n2)n1	i	0.74	54.0	73.4	-10.5	90.4	-0.6
CCC(=O)Nc1ccc(C(=O)NNC(=O)COc2cc(C)ccc2C)cc1	i	1.02	.	.	1.3	57.2	0.1
Cc1cc(Br)ccc1SCC(=O)OCC(=O)NC(C)c1ccccc1 (stereo unspecified)	i	0.98	35.7	122.2	17.3	86.5	-0.3
Cc1ccc(NC(=O)[C@@H]2CCCN2S(=O)(=O)c2ccccc2F)cc1S(=O)(=O)N1CCOCC1	i	0.95	-26.7	80.5	7.0	100.8	-0.1
COC(=O)C(C)NC(=S)N1CCN(c2c(F)cc3c(=O)c(C(=O)O)cn(C4CC4)c3c2OC)CC1C (stereo unspecified)	i	1.04	.	.	.	89.8	.
CN1CCN(CC(=O)Nc2nc3c(s2)CCCC3)CC1	i	0.93	.	.	.	105.0	.
COc1ccc(-c2nnc3sc(COc4ccccc4)nn23)cc1	i	0.87	-14.8	59.1	-3.9	104.0	-0.7
CC(=O)C1C(=O)C=C(c2cccs2)CC1c1ccccc1 (stereo unspecified)	i	1.05	.	.	-1.3	102.7	.
O=C1C(NS(=O)(=O)c2ccc(Cl)cc2)=C(N2CCCCC2)C(=O)c2ccccc21	i	0.68	.	.	2.1	116.2	-2.0
C(=C\c1ccccc1)/CSc1nnc(-c2ccccn2)n1Cc1ccco1	i	0.75	-280.9	42.7	2.2	100.0	0.2
C#CCOC(=O)C(NC(=O)c1ccccc1)=C1CCCCC1	i	0.78	-28.6	136.8	6.2	103.3	1.2
COc1ccc(CCNC(=O)Cn2nnc(-c3ccccc3F)n2)cc1OC	i	1.26	10.3	112.6	-15.8	97.6	-0.6
CC(=O)c1c(NC(=O)C(C)C)nc(C)nc1-c1ccccc1	i	1.08	.	.	18.2	101.6	-3.9
CSc1ccc(NC(=O)NCCCN2CCN(c3ccccc3F)CC2)cc1	i	0.71	33.3	100.7	-6.6	100.2	-1.0
Cn1c(SCC(=O)Nc2cccc(F)c2)nnc1-c1cc2ccccc2o1	i	0.49	-22.7	74.7	-4.3	97.2	-2.4
Cc1ccc(OCc2nc(-c3ccccn3)no2)cc1	i	0.81	0.0	137.8	-2.3	76.0	-1.6
Cc1nc2ccccc2c(=O)n1/N=C/c1ccc(O)cc1	i	0.92	.	.	1.8	101.0	-2.6
O=C(O)c1ccc(-c2ccccc2)[nH]1	i	0.94	10.0	111.2	9.8	94.0	-0.2
Clc1ncnc2scc(-c3ccc(Br)cc3)c12	i	1	41.4	107.7	0.3	18.0	-1.2
CC(=O)Oc1ccc2c(=O)c(/C=N/c3cc(=O)[nH]c(=S)[nH]3)coc2c1	i	0.97	.	.	.	100.3	.

An excerpt from above in order of their number in PKD1 kinase inh, falling.
mol	PKD1 kinase inh
CC(=O)c1c(NC(=O)C(C)C)nc(C)nc1-c1ccccc1	18.2
C(=C\c1ccccc1)/CSc1nnc(-c2ccccn2)n1Cc1ccco1	2.2
Cc1ccc(OCc2nc(-c3ccccn3)no2)cc1	-2.3

Back to the main list; the 2 compounds before the break are reprinted first.
SMILES	HSV augment	HSV augment primary fold	Insulin prom inh	Insulin prom inh cell count	PKD1 kinase inh	RGS16-Gao HTS	GALR2 agonist
Clc1ncnc2scc(-c3ccc(Br)cc3)c12	i	1	41.4	107.7	0.3	18.0	-1.2
CC(=O)Oc1ccc2c(=O)c(/C=N/c3cc(=O)[nH]c(=S)[nH]3)coc2c1	i	0.97	.	.	.	100.3	.
CC(=O)c1c(-c2ccc(Cl)cc2)c2ccccc2[nH]c1=O	i	0.92	.	.	-7.1	107.4	.
COc1ccc(CNC(=O)c2cc(COc3c(F)cccc3F)on2)cc1OC	i	0.88	.	.	-5.5	108.5	.
CCOC(=O)c1[nH]c(CSc2nnc(-c3ccncc3)n2CCOC)c(C(=O)OCC)c1C	i	0.87	17.2	127.1	-7.2	100.2	-1.8
CCCCC(=O)N(CCC)CCC	i	0.92	.	.	.	102.5	.
N/C(Cn1cncn1)=N\NC(=O)C(=O)Nc1ccccc1	i	1.27	.	.	-5.7	99.4	.
CCS(=O)c1scc(-c2ccc(Cl)cc2)c1C#N (stereo unspecified)	i	0.97	.	.	.	96.4	.
COc1ccc2c(c1)C(=O)/C(=C/C=C/c1ccccc1)CC2	i	1.03	43.8	143.8	-1.4	97.6	-1.2
O=C1C2C3C=CC(C2C(=O)N1c1ccccc1O)C1C2C(=O)N(c4ccccc4O)C(=O)C2C31 (stereo unspecified)	i	1	-50.0	99.1	0.1	100.6	.
CN1C(=O)C2C=CC1C1C(=O)N(c3ccccc3)C(=O)C21 (stereo unspecified)	i	0.73	.	.	-0.2	104.9	-1.4
N#Cc1cnc2sc3ccccc3n2c1=N	i	0.88	30.0	90.5	2.0	98.5	-2.4
Cc1cc(C(C)(C)C)cc(C)c1Cn1c2[n+](c3ccc(C(F)(F)F)cc31)CCCCC2	i	0.93	.	.	-1.9	104.6	.
COC(=O)C(N)Cc1ccc(O)cc1 (stereo unspecified)	i	0.93	-40.5	109.9	-6.0	96.9	-2.3
COc1ccc(C(CNC(=O)c2ccc(S(=O)(=O)N(C)C)cc2)N2CCCC2)cc1 (stereo unspecified)	i	1	.	.	0.3	104.6	.
Clc1ccc(CNc2ccccn2)cc1	i	1.04	.	.	-3.6	105.3	.
Cc1ccc(-n2nc(-c3ccco3)cc2C(=O)NCc2cccnc2)cc1	.	.	.	.	-8.2	87.0	-1.8
CCC(C)(C)n1nnnc1C(c1ccc(OC)c(OC)c1)N1CCN(c2cccc(OC)c2)CC1 (stereo unspecified)	i	0.94	-41.4	114.6	3.0	106.9	-2.2
CCOC(=O)c1ccccc1NC(=O)Cn1c(=O)n(Cc2ccccc2)c(=O)c2c(C)c(C)sc21	i	1.07	-20.0	99.8	-4.0	105.7	-1.1
CCCC(=O)Nc1nnc(Cc2ccccc2)s1	i	1.04	41.7	177.3	-0.7	95.9	1.0
O=C(c1ccccc1)c1n[nH]c(-c2ccccc2)cc1=O	i	0.97	45.5	122.9	-4.1	125.1	.
Cc1nn(-c2ccccc2)c(C)c1C(=O)OCC(=O)N1CCN(S(=O)(=O)c2ccccc2)CC1	i	0.89	-9.1	123.3	-2.7	132.4	-2.0
COC(=O)CSc1ccc(C#N)c(SCC(=O)OC)c1	i	0.96	17.9	101.0	-9.9	106.8	-1.0
COc1ccc(NC(=O)CSc2nnc(Cc3cccn3C)n2CCc2ccccc2)c(OC)c1	i	0.88	-68.8	53.7	4.8	100.6	-2.8
CC1=NOC2(C1)N(C)c1ccccc1C2(C)C (stereo unspecified)	i	0.96	18.5	92.4	-2.7	100.6	-0.2
O=C(NCc1ccccn1)c1ccc(Cn2cc(Br)cn2)o1	i	0.94	64.9	72.3	-3.8	105.9	-0.6
Cc1nc(SCC(=O)NCc2ccccc2)c2oc3ccccc3c2n1	i	1.2	21.4	84.2	-0.1	99.6	0.1
Cc1ccc(Cn2nnc3c(=O)n(Cc4ccccc4C)cnc32)cc1	i	0.66	.	.	-19.8	99.0	-0.7
CCN(CC)CCN1C(=O)C(O)=C(C(=O)c2cc3cccc(OC)c3o2)C1c1ccc(F)cc1 (stereo unspecified)	i	1	.	.	.	103.0	.
Cc1ccccc1-n1nc2c(c1NC(=O)c1c(-c3ccccc3Cl)noc1C)CSC2	i	1.2	8.3	67.1	-1.2	112.3	-0.3
Cc1cc(-c2nn(C)c(=O)c3ccccc23)ccc1CNC(=O)NC1CCCCC1	i	0.9	.	.	5.6	121.8	.
CCCNC(=S)N1CC2(C)CN(C(=O)C(=O)OCC)CC(C)(C1)C2=O	i	0.97	20.0	102.5	2.9	112.4	.
Cc1ccc(S(=O)(=O)NCCC(c2ccccc2)c2ccco2)cc1 (stereo unspecified)	i	1.01	-43.8	61.8	0.8	95.9	-0.6
C=CCOc1cccc(C(=O)NC(c2ccccc2)C(C)C)c1 (stereo unspecified)	i	0.92	.	.	0.6	99.3	.
Brc1ccc(C2C3=C(Nc4ncnn42)c2ccccc2OC3c2ccncc2)cc1 (stereo unspecified)	i	0.89	-41.7	121.9	-6.6	98.2	3.0
COc1ccc(C(=O)Nn2c(SCC(=O)NCC3CCCO3)nc3ccccc3c2=O)cc1 (stereo unspecified)	i	0.92	12.5	227.3	-9.0	131.3	-0.2
Cn1nc(-c2ccc(OCC(=O)NCC3CCCO3)cc2)c2ccccc2c1=O (stereo unspecified)	i	0.79	-18.2	99.4	-1.4	107.1	-0.6
COc1ccc(NC(=O)N2CCN(S(C)(=O)=O)CC2)cc1OC	i	0.96	.	.	-1.1	99.8	-0.5
COCCNC(=O)c1cc(C(=O)CC(C)C)c[nH]1	i	0.9	25.7	99.1	3.1	100.4	.
CC(=O)Nc1ccc(C(=S)NCC2(N(C)C)CCCCC2)cc1	i	0.82	.	.	-2.9	99.7	.
O=C(NCc1ccco1)c1cnn2c1NC(c1ccccc1)CC2C(F)(F)F (stereo unspecified)	i	0.83	23.1	42.5	-6.4	101.2	-1.5
CCOc1cc(S(=O)(=O)Nc2ccc(CC)cc2)ccc1Cl	i	0.94	-32.4	97.6	-8.2	100.8	-3.1
O=C(Oc1nsnc1N1CCOCC1)N1CCCC1	i	0.83	-16.3	23.3	-0.3	.	-1.3
CC(C)(C)S(=O)(=O)/C(C#N)=N/Nc1ccc(C#N)cc1	i	0.98	.	.	-8.4	102.5	.
COc1ccc(OC)c(NC(=O)C2CCC(CNc3c(N4CCOCC4)c(=O)c3=O)CC2)c1 (stereo unspecified)	i	1.17	.	.	.	107.0	.
CCOc1ccc2nc(NC(=O)Nc3cccs3)sc2c1	i	1.09	20.0	137.6	-5.8	100.9	-0.4
COc1ccc(CCNC(=O)CSc2ccsc2[N+](=O)[O-])cc1OC	i	0.96	-14.3	139.4	-4.0	97.9	.
O=C(Nc1cccc(Cl)c1N1CCCC1)c1ccc(Br)o1	i	1.31	0.0	80.0	-0.9	102.6	-0.1
CC(C)NC(=O)CSc1nc(-c2ccccc2)cs1	i	0.99	-18.2	44.1	-0.8	115.0	.
Cc1ccc2oc(=O)c3cc(C(=O)NCc4ccco4)sc3c2c1	i	1.02	.	.	2.2	105.6	4.4

Whole records as entered above. Values in the order: HSV augment | HSV augment primary fold | Insulin prom inh | Insulin prom inh cell count | PKD1 kinase inh | RGS16-Gao HTS | GALR2 agonist
CC(=O)Nc1ccc(C(=S)NCC2(N(C)C)CCCCC2)cc1 is entered as i | 0.82 | . | . | -2.9 | 99.7 | .
CC(C)(C)S(=O)(=O)/C(C#N)=N/Nc1ccc(C#N)cc1 is entered as i | 0.98 | . | . | -8.4 | 102.5 | .
COCCNC(=O)c1cc(C(=O)CC(C)C)c[nH]1 is entered as i | 0.9 | 25.7 | 99.1 | 3.1 | 100.4 | .
COc1ccc(CCNC(=O)CSc2ccsc2[N+](=O)[O-])cc1OC is entered as i | 0.96 | -14.3 | 139.4 | -4.0 | 97.9 | .

(continued)
SMILES	HSV augment	HSV augment primary fold	Insulin prom inh	Insulin prom inh cell count	PKD1 kinase inh	RGS16-Gao HTS	GALR2 agonist
CCCNC(=O)Cn1nc(C(F)(F)F)c2c1CCC2	i	0.98	.	.	12.6	101.3	.
CC(O)CN(CCC(N)=O)CCC(N)=O (stereo unspecified)	i	0.84	-35.7	111.6	-7.6	99.2	-2.6
COc1ccc(CC2(CO)CCN(Cc3c(C)nn(C(C)C)c3C)CC2)cc1	i	0.96	.	.	-1.1	116.3	.
O=C(CSc1nnc(-c2cccs2)n1CC1CCCO1)c1cc2ccccc2o1 (stereo unspecified)	.	.	.	.	-8.6	99.8	-2.4
COc1ccccc1N=c1c2c([N+](=O)[O-])cc([N+](=O)[O-])cc2n(O)n1-c1ccccc1OC	.	.	61.5	102.5	-7.3	99.1	.
Cc1c(S(=O)(=O)Nc2cccc(Cl)c2)c(=O)n(C)c(=O)n1C	i	0.84	.	.	-6.0	102.6	-5.0
